Bioassay records (PubChem)
Cruzain noTriton: inhibitors of Trypanosoma cruzi cruzain without detergent; P25779; Potency, µM, for the others: max response, negative = inhibition, usual class: inhibitors; actives 2.3% (n = 200,000); AID 1476; purified cruzain, Z-FR-AMC fluorescence, no detergent;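 note: plate controls were enzyme without inhibitor for no effect and buffer without enzyme for full effect; nearly all actives have a fitted effect of over 40% in size; top concentration of the series not given in the record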
Target sequence (P25779 123-467 limits assumed): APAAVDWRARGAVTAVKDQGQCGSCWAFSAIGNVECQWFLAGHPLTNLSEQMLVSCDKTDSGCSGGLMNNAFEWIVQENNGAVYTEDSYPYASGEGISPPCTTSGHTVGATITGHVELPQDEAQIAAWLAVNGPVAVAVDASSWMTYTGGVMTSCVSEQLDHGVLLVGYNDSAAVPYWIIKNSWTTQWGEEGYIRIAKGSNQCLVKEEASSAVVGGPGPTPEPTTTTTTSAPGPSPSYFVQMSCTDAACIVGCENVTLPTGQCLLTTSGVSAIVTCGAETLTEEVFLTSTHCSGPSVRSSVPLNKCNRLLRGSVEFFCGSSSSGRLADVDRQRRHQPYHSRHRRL
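Purified cruzain at 1.5 nM, pre-incubated 15 min with compound at room temperature in 100 mM sodium acetate pH 5.5, 5 mM DTT, 0.00005% Triton X-100. Reaction started with 2 uM Z-FR-AMC; AMC fluorescence increase over 60 s gives rate.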
2A StopGo: lowers the luciferase signal of an FMDV 2A StopGo reporter; actives 1.2% (n = 410,000); Potency, µM (top dose mostly 57.9 µM), inactives show at the highest dose signal change, negative = less light; human cells with a luciferase reporter of 2A StopGo recoding; control for the full effect not named in the record; active = well fitted falling curve with a large enough effect; inconclusive = small, poorly fitted or top-dose-only effect; inactive = no such curve, though single readings can be large or run the other way; tested in HEK293T cells; note: % is set by controls: 0 for no effect and ±100 for the full control effect; nearly all actives have a fitted effect of over 45% in size; luciferase light after 4 h
SARS PLP yeast: blocks SARS-CoV papain-like protease in a yeast assay. S. cerevisiae expressing SARS-CoV PLpro, growth rescue; control for the full effect not named in the record. AID 485353. Potency, µM (top dose mostly 32.9 µM), inactives show at the top dose activity, positive = growth rescue. actives 0.19% (n = 330,000); active means well fitted rising curve with a large enough effect; inconclusive means small, poorly fitted or top-dose-only effect; inactive means no such curve, though single readings can be large or run the other way; note: 0% is about no effect; nearly all actives have a fitted effect of over 55% in size; growth read by luminescence after 48 h
RE007 growth inh: less growth of the S. pombe RE007 Vpr strain; S. pombe RE007 Vpr strain, BacTiter-Glo ATP luminescence, 24 h; control for the full effect not named in the record; Potency, µM (highest dose often 92.2 µM), without a hit: top-dose activity change, negative = less growth; actives 0.21% (n = 360,000); AID 651644; active = well fitted falling curve with a large enough effect; inconclusive = small, poorly fitted or top-dose-only effect; inactive = no such curve, though single readings can be large or run the other way;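 note: % is set by controls: 0 for no effect and ±100 for the full control effect; nearly all actives have a fitted effect of over 50% in size; the assay follows cell death caused by Vpr and the record does not say whether a fall means rescue or toxicity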
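Fission yeast RE007 carrying one integrated HIV-1 vpr copy, seeded at OD 0.01 in PMG+AL medium with 23 nL pinned compound. Grown 24 h at 30 degrees; viability read by BacTiter-Glo luminescence after 5 min.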
Marburg entry inh: inhibitors of Marburg virus binding or cell entry; Marburg virus pseudotyped entry inhibition, cell reporter; control for the full effect not named in the record; about a third of the inactives were read at about 46 µM; Potency, µM (titrated, usually from 37.8 µM), without a hit: top-dose activity change, negative = inhibition, usual class: inhibitors; actives 1.8% (n = 300,000); active = well fitted inhibition curve with a large enough effect; inconclusive = small, poorly fitted or top-dose-only effect, or effect the other way; inactive = flat fitted curve, though single readings scatter; tested in HEK293 cells; about a fifth of its hits are not listed in these tables; note: % is set by controls: 0 for no effect and ±100 for the full control effect; luciferase read-out
Cruzain Triton: inhibitors of Trypanosoma cruzi cruzain with detergent | AID 1478 | actives 0.43% (n = 200,000) | purified cruzain, Z-FR-AMC fluorescence, 0.01% Triton | Potency, µM, for the others: max response, negative = inhibition, usual class: inhibitors | P25779;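 note: plate controls were neutral wells for no effect and buffer without enzyme for full effect; nearly all actives have a fitted effect of over 40% in size; top concentration of the series not given in the record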
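Detergent-containing run (0.01% Triton X-100) in acetate buffer pH 5.5 with 5 mM DTT: enzyme at 1.5 nM final, 15 min compound preincubation at room temperature, then 2 uM Z-FR-AMC substrate. Activity taken as 60 s fluorescence increase at 360/450 nm.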
Lassa entry inh: blocks Lassa virus binding to or entry into cells; Lassa virus pseudotype entry inhibition, cell reporter; control for the full effect not named in the record; Potency, µM (titrated, usually from 37.9 µM), for inactives: at the top dose activity change, negative = inhibition, usual class: inhibitors; actives 1.2% (n = 300,000); AID 540256; active means well fitted inhibition curve with a large enough effect; inconclusive means small, poorly fitted or top-dose-only effect, or effect the other way; inactive means flat fitted curve, though single readings scatter; tested in HEK293 cells; note: % is set by controls: 0 for no effect and ±100 for the full control effect; nearly all actives have a fitted effect of over 50% in size; luciferase read-out
NS1 inh: influenza NS1 inhibition; S. cerevisiae slowed by influenza A NS1, growth recovery by OD600; Potency, µM (highest dose often 46.1 µM), inactives show top-dose activity, positive = more growth; actives 0.4% (n = 270,000); active means well fitted rising curve with a large enough effect; inconclusive means small, poorly fitted or top-dose-only effect; inactive means no such curve, though single readings can be large or run the other way; note: nearly all actives have a fitted effect of over 50% in size
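A cell-based growth assay was used: compounds that relieve NS1-induced slow growth of budding yeast raise OD600. Assay medium was yeast nitrogen base with ammonium sulphate and -URA supplement, pH 6.0, with 2% galactose.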
Numbers without * were called inactive; u = inconclusive; x = no result given; [ ] = remark or other dose. Unless noted, calls come from the whole dose curve; as a rule, active = well fitted curve in the direction sought with a large enough effect; inconclusive = small, poorly fitted or top-dose-only effect, or another doubt; inactive = no such curve, though single readings can be large; an effect the other way counts as inactive or inconclusive. Potency is the fitted concentration of half-maximal effect.

SMILES	Cruzain noTriton	2A StopGo	SARS PLP yeast	RE007 growth inh	Marburg entry inh	Cruzain Triton	Lassa entry inh	NS1 inh
COc1cccc(C(=O)/C=C/Nc2ccc(S(=O)(=O)Nc3onc(C)c3C)cc2)c1	-8%	3%	26%	-5%	u	-11%	18%	-38%
O=C(NCc1ccccc1)C1CCCN(C(=O)Nc2ccccc2)C1 (stereo not given)	1%	47%[activator]	0%	2%	u	-0.2%	-1%	-11%
CCc1nnc(NC(=O)c2nn(-c3ccccc3)nc2C)s1	x	-7%	0%	-5%	x	x	x	-9%
O=C(O)C1CCCN(S(=O)(=O)c2ccc(Br)cc2)C1 (stereo not given)	1%	-21%	-3%	8%	15%	7.8%	-3%	5%
CC1CCCCC1Nc1nc2ccc(Cl)cc2n2cnnc12 (stereo not given)	x	6%	-4%	16%	x	x	x	-1%
O=c1c2oc3ccccc3c2ncn1Cc1cccc(Cl)c1	x	0%	-3%	37%	24%[46.1 µM]	x	7%[46.1 µM]	x
COc1ccc(CC(=O)OCC(=O)N2CCCc3ccccc32)cc1	x	-17%	-6%	-13%	-3%	x	5%	x
CCCCCOC(=O)Cn1c(=O)c2c(nc(N3CCOCC3)n2C)n(C)c1=O	3%	u	-3%	-4%	0%	3.0%	-3%	-7%
O=C(CN1C(=O)COc2ccccc21)NCCCN1CCOCC1	x	-13%	3%	-1%	-15%[46.1 µM]	x	1%[46.1 µM]	-6%
C[C@]12CCC3C(CC[C@H]4C[C@@H](O)CC[C@]34C)C1C/C(=N/O)[C@@H]2O (stereo not given in full)	x	-13%	-1%	3%	19%[46.1 µM]	x	4%[46.1 µM]	x
COc1cc(OC)c(NS(=O)(=O)c2ccc(Cl)c(C(=O)OC(C)C(=O)N3CCCC3)c2)cc1Cl (stereo not given)	u	u	-14%	x	u	-8.2%	-18%	-5%
O=C(Cc1ccc(Cl)cc1Cl)Nc1ccncc1	x	u	-13%	-8%	-40%[46.1 µM]	x	-3%[46.1 µM]	-63%
OC(COc1c(Br)cc(Br)cc1Br)CN1CCOCC1 (stereo not given)	22%	-20%	-6%	-15%	u	-6.7%	11%	-13%
CCOC(=O)c1c(C)n(C)c2cc(OCCN(CC)CC)ccc12	-7%	x	-8%	3%	u	2.2%	2%	2%
Cc1ccc(CC2CC(=O)N(c3nc(C)cc(C)n3)C2=O)cc1 (stereo not given)	x	7%	2%	7%	24%[46.1 µM]	x	-6%	-1%
CCCCCCCc1nc2sc3c(c2c(=O)n1N)CC(C)(C)OC3	x	-21%	1%	-5%	11%[46.1 µM]	x	1%	2%
CSc1cccc(CNC(=O)C2CCC(=O)N(CC3CCCCC3)C2)c1 (stereo not given)	x	-29%	-6%	13%	-19%	x	0%	5%
COc1cccc(N2CCN(C3CCCC(C)C3)CC2)c1 (stereo not given)	2%	11%	3%	-19%	-28%	2.5%	-6%	-34%
CCOC(=O)C(=O)Nc1cc(C)on1	x	-16%	1%	5%	-2%[46.1 µM]	x	-12%	5%
O=C(NCCC1=CCCCC1)C1CCN(C(=O)Nc2ccccc2)CC1	-1%	-1%	0%	11%	22%	5.4%	6%	0%
Cc1c(C(=O)N2CCC(N3CCSCC3)CC2)oc2c(F)cccc12	x	5%	2%	-4%	x	x	x	-3%
COc1ccc(CC2(CO)CCN(Cc3cnn(C)c3C)CC2)cc1	x	-3%	1%	9%	x	x	x	-2%
COCC(=O)N(Cc1cc2cc(OC)ccc2[nH]c1=O)c1ccccc1	-9%	7%	1%	-1%	11%	-1.0%	5%	6%
CCCNC(=O)c1ccccc1N1CCN(CCCCN2C(=O)C3CCCCN3C2=O)CC1 (stereo not given)	x	51%[activator]	1%	4%	x	x	x	14%
Cc1cc(=O)n(CC(=O)NC(C)c2ccccc2)c2c1c(C)nn2-c1cccc(F)c1 (stereo not given)	0%	-2%	x	x	x	6.2%	11%[46.1 µM]	x
SMILES	Cruzain noTriton	2A StopGo	SARS PLP yeast	RE007 growth inh	Marburg entry inh	Cruzain Triton	Lassa entry inh	NS1 inh
Cc1ccc(Cl)cc1N1CCN(C(=O)c2ccc(CN3CCOCC3)cc2)CC1	16%	x	-5%	3%	u	0.9%	-30%	-53%
O=C(Cc1ccc(Cl)cc1)c1c[nH]c(C(=O)NCCCN2CCOCC2)c1	x	-11%	0%	8%	-2%[46.1 µM]	x	12%[46.1 µM]	x
O=C(O)Cn1nc(-c2ccccc2)cc1-c1ccccc1	x	27%	-1%	1%	13%	x	u	1%
O=C(Nn1c(-c2ccc(F)cc2)nc2ccccc2c1=O)c1cccnc1	x	-7%	3%	-3%	11%[46.1 µM]	x	u	x
COc1ccc(C(C)NC(=O)C2CCCO2)cc1OC (stereo not given)	0%	5%	-4%	3%	13%	-1.4%	-8%	-5%
COc1ccc(-n2c(SCC(=O)NCc3ccc(F)cc3)nc3c([nH]c4ccccc43)c2=O)cc1	-2%	-8%	x	x	x	-2.8%	-23%[46.1 µM]	x
CC(C)c1ccc(CN(C)CC(O)c2ccccc2)cc1 (stereo not given)	x	2%	-1%	-13%	3%[46.1 µM]	x	2%	-1%
COc1ccc(S(=O)(=O)NCCCn2ccnc2)cc1Cl	x	7%	1%	-4%	x	x	x	10%
CCS(=O)(=O)Nc1cc2c3c(c1)CCC(=O)N3CCC2	x	-10%	7%	4%	x	x	x	-3%
COc1cc(C(=O)NCc2ccncc2)cc(OC)c1OC	x	-2%	0%	12%	u	x	0%[46.1 µM]	-4%
COc1ccccc1N(Cc1ccccc1)S(=O)(=O)c1cccc(C(=O)Nc2ccccn2)c1	x	-7%	-10%	-4%	u	x	u	-35%
CCc1ccc(NC(=O)COC(=O)c2cccs2)cc1	x	25%	-1%	-20%	u	x	-8%[46.1 µM]	-13%
COC(=O)c1ccccc1NC(=O)c1ccc2nc(CCc3ccccc3)oc2c1	9%	-18%	x	x	x	2.0%	0%[46.1 µM]	x
CC1CCN(C(=O)c2cccc(S(=O)(=O)N3CCN(c4ccccc4)CC3)c2)CC1	x	-10%	1%	6%	17%	x	2%	x
O=C(OCc1cnc(Cl)s1)c1ccccc1Cl	-2%	5%	6%	-18%	5%	0.5%	9%	-30%
Cc1ccc(NC(=O)CN2CCOCC2)cc1Cl	x	-9%	1%	8%	18%[46.1 µM]	x	-2%[46.1 µM]	1%
COc1ccccc1NC(=O)N1CCCC1C(=O)NCc1ccccc1 (stereo not given)	3%	7%	-3%	7%	0%[46.1 µM]	2.7%	6%	15%
CC(=O)c1ccc(NC(=O)CSc2ccc3nnc(CCNS(=O)(=O)c4ccc(C)cc4)n3n2)cc1	-6%	-15%	x	x	x	-2.5%	13%[46.1 µM]	x
O=C(COC(=O)/C=C/c1cccc(C(F)(F)F)c1)NCc1ccco1	x	-12%	2%	1%	-18%[46.1 µM]	x	-16%	x
CC(C)(CC(=O)O)CC(=O)Nc1ccc(Cl)c(Cl)c1	x	30%[activator]	0%	-8%	-4%	x	u	4%
CC(C)Sc1nc2c([nH]c3ccccc32)c(=O)n1C	x	-15%	3%	1%	24%[46.1 µM]	x	4%	x
S=C(NCC1CCCO1)Nc1cccc2ccccc12 (stereo not given)	x	14%	0%	-6%	2%[46.1 µM]	x	10%	-2%
COc1ccccc1C(=O)Nc1ccc(S(=O)(=O)Nc2cc(C)on2)cc1	4%	12%	-4%	-10%	-5%	-1.7%	24%	0%
C=CCn1c(SCC(=O)Nc2ccccc2OC)nc(O)c(CC)c1=O	u	5%	-3%	0%	17%	-7.6%	3%	2%
COc1ccc(C(=O)C2CCCN(C(=O)/C=C/c3cnc[nH]3)C2)c(C)c1 (stereo not given)	x	-7%	x	0%	0%	x	1%	20%
SMILES	Cruzain noTriton	2A StopGo	SARS PLP yeast	RE007 growth inh	Marburg entry inh	Cruzain Triton	Lassa entry inh	NS1 inh
Cc1ccc(C(=O)O/N=C(\N)c2ccccn2)cc1C	x	-98%	-19%	-25%	0.71µM*	x	u	-22%
COc1ccc(NC(=O)c2sc(NC(=O)COc3ccccc3)nc2C)cc1	-9%	x	-6%	-10%	-2%	-2.3%	-1%	-1%
COc1cc(-c2nc(-c3ccccn3)no2)cc(OC)c1OC	5%	x	9%	-10%	23%	3.9%	13%	-14%
Cc1ccc(-n2nc3c(c2NC(=O)/C=C\c2ccc4c(c2)OCO4)CSC3)cc1	32µM*	0%	-14%	-3%	-21%	-4.3%	1%	16µM*
Cc1cc(C)c(C)c(S(=O)(=O)N2CCN(C(=O)C3CCC3)CC2)c1C	x	-20%	0%	4%	u	x	9%	x
COc1cc(NC(=O)c2cccs2)c(OC)cc1NC(=O)CCn1nnc2ccccc21	11%	-29%	-3%	-3%	18%	0.0%	-7%	-31%
CCOC(=O)C1CCCN(C2CC(=O)N(c3ccc(C)cc3)C2=O)C1 (stereo not given)	7%	x	-39%	u	-22%	-0.6%	19%	-52%
CCn1ncc(C2=NOC(C(=O)Nc3cc(OC)c(Cl)cc3OC)C2)c1C (stereo not given)	u	1%	3%	-17%	-7%	-0.3%	-8%	0%
O=C(Nc1ncccn1)c1ccc([N+](=O)[O-])o1	x	-17%	0%	-12%	u	x	-3%	x
CCCCC(=NCCc1c(C)[nH]c2ccccc12)C1=C(O)CC(c2ccccc2)CC1=O (stereo not given)	x	-18%	-3%	-4%	u	x	8.9µM*	x
CC1CCN(C(=O)CN2CCSc3ccccc32)CC1	-3%	-16%	x	x	x	-1.3%	-5%[46.1 µM]	x
CCCCn1c(NC(=O)CC)c(C#N)c2nc3ccccc3nc21	25%	8%	4%	14%	-1%	6.7%	12%	-30%
COc1ccc(NC(=O)C2=C(C)Nc3nc(CCCO)nn3C2c2ccc(OC)c(OC)c2)cc1 (stereo not given)	x	-3%	1%	-12%	3%[46.1 µM]	x	1%	5%
Cc1cccc(NC(=S)NNC(=O)COc2ccc(Cl)cc2Cl)c1	u	-24%	10µM*	12%	u	-0.2%	-9%	21%
O=C(O)c1ccccc1NC(=O)C1CCN(S(=O)(=O)c2cccc3nsnc23)CC1	x	-5%	-1%	-24%	1%[46.1 µM]	x	-22%[46.1 µM]	-4%
O=C(COC(=O)c1ccccc1)c1ccc(Br)cc1	u	x	10%	-23%	25%	2.0%	21%	-1%
